Bioassay records from PubChem BioAssay.
HCMV antiviral – blocks human cytomegalovirus replication; HFF cells, HCMV-luciferase reporter, 72 h; hits give low values; activity change, negative = inhibition, % at 57.5 µM; actives 4.5% (n = 410,000); AID 1259415; in the data active = activity change below about -60%; inconclusive = no clear call, values can overlap the other calls; inactive = above about -39%
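Cell-based, HFFs, 1000 cells/well, 16 h 37C; cpds in DMSO + HCMV-luc, MOI 1 PFU/cell; 72 h 37C; OneGlo luminescence after 5 min RT; norm. to buffer vs Salinomycin 10uM.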
AMA1 RON2 block – AMA1-RON2 (P. falciparum) interaction inhibition; AlphaScreen AMA1-biotinylated RON2 peptide binding; Potency, µM (doses to about 58.2 µM), for inactives: at the top dose activity change, negative = inhibition, hits mostly inhibitors; actives 0.2% (n = 360,000); AID 720542;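 note: potency is the fitted concentration of half-maximal effect; 0% = vehicle wells and -100% = peptide control; nearly all actives have a fitted effect of over 45% in size; some results filed as inactive show a strong effect at the top dose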
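AMA1 (3D7) with his tag at 25 nM final met compounds first, then biotinylated RON2 peptide at 25 nM; detection used donor plus acceptor beads, 10 µg/mL apiece, read by AlphaScreen after 30 min at room temperature.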
HCV inhibitor – blocks hepatitis C virus | Huh7.5.1 HCVcc-Cre infection, luciferase reporter, 44 h | Potency, µM (series often up to 41.8 µM), without a hit: at the top dose activity change, negative = inhibition, usual class: inhibitors | actives 3.4% (n = 340,000) | AID 651820; note: potency is the fitted concentration of half-maximal effect
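Compounds are dispensed onto cells plated 4 h earlier at 1,000 per well, with HCVcc-Cre virus (about 0.5 moi) added next. Following 44 h of culture, luminescent signal is measured for 15 sec after 15 min with substrate at room temperature.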
Giardia FBPA inh – Giardia lamblia aldolase inhibition | A8B2U2 | purified Giardia FBPA | Potency, µM (top dose mostly 59.6 µM), for inactives: top-dose activity, negative = inhibition, most hits filed as inhibitors | actives 0.71% (n = 290,000) | AID 2451; note: potency is the fitted concentration of half-maximal effect; nearly all actives have a fitted effect of over 55% in size
Target sequence (A8B2U2 whole entry, looked up): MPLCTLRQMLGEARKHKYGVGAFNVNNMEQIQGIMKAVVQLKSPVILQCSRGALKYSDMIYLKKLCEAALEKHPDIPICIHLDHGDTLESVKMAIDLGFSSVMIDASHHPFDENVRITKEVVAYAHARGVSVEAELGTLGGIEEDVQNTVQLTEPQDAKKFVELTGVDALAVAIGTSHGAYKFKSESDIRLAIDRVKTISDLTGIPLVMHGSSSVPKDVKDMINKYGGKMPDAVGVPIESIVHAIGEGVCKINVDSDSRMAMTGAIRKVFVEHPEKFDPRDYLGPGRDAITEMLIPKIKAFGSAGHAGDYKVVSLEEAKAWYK
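Giardia FBPA (40 nM reagent) was preincubated 10 min at RT with compound (up to 57.5 uM final), then substrate plus GAPDH/TPI/NAD/arsenate coupling system with diaphorase/resazurin was added; resorufin fluorescence (525/598 nm) was read after 20 min.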
AmpC detergent – inhibitors of E. coli AmpC beta-lactamase with detergent | Potency, µM (titrated, usually from 114 µM), inactives show at the top dose activity change, negative = inhibition, actives largely listed as inhibitors | AID 485294 | actives 0.041% (n = 370,000) | AmpC hydrolysis of nitrocefin, absorbance 480 nm, 0.01% Triton;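 note: potency is the fitted concentration of half-maximal effect; 0% = no-compound wells and -100% = no-enzyme wells; nearly all actives have a fitted effect of over 25% in size; some results filed as inactive show a strong effect at the top dose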
Target sequence (P00811 whole entry, looked up): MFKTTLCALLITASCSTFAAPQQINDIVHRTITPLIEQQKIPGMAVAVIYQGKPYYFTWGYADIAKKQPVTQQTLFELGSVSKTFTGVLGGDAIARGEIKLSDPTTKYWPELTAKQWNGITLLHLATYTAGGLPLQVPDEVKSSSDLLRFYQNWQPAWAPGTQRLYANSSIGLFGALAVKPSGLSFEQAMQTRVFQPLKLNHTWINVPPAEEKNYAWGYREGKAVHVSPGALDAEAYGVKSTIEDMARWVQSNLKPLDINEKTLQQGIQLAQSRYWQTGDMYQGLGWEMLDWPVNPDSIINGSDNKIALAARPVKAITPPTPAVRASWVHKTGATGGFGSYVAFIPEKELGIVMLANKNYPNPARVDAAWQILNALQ
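AmpC (5.3 nM in the dispensed reagent) in 20 mM phosphate pH 7.0 with 0.01% (detergent screen) or 0.0001% Triton X-100 was preincubated with compounds for 15 min at room temperature. Nitrocefin was then added from an 800 uM solution, and hydrolysis was followed at 480 nm.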
The depositor's hits bear a star; ? = inconclusive; nt = no result given; & = joins results of further samples; [ ] = another dose, or the depositor's remark. Unless noted, calls come from the whole dose curve; as a rule, active = well fitted curve in the direction sought with a large enough effect; inconclusive = small, poorly fitted or top-dose-only effect, or another doubt; inactive = no such curve, though single readings can be large; an effect the other way counts as inactive or inconclusive. Unless noted, % is set by controls: 0 for no effect and ±100 for the full control effect. The list is partial, so the mix of outcomes need not match the whole.

The opening 15 records, to show the layout:
SMILES | HCMV antiviral | AMA1 RON2 block | HCV inhibitor | Giardia FBPA inh | AmpC detergent
CCc1ccc(-n2cccc2/C=C2/C(=N)N3C(=NC2=O)SN=C3S(C)(=O)=O)cc1 | 5 | -6% | -7% | 26% | ?
COc1ccc(OC(=O)CCc2c[nH]c3ccccc23)cc1 | 0 | ? | 7% | -5% | 6%
COc1ccccc1NS(=O)(=O)c1cc(C(=O)N2CCCCCCC2)ccc1C | 4 | 16% | 1% | nt | -14%
COc1ccccc1Nc1ccc(NS(=O)(=O)c2ccc(C(C)=O)cc2)cc1 | 18 | -18% | -23% | 17% | -14%
O=C(c1ccc(F)cc1)C1CCN(C(=O)c2ccccc2F)CC1 | 7 | -5% | -12% | -11% | -17%
C=CCS(=O)(=O)N1CCC(CCOc2ccccc2)(C(=O)OCC)CC1 | -9 | 1% | 4% | 1% | -1%
CCCCOC(=O)C1=C(C)Nc2nnnn2C1c1ccc(OC)c(OC)c1OC (stereo not given) | -8 | -17% | -6% | -16% | 0%
O=C(O)C1C2C=CC(C2)C1C(=O)NCCC1=CCCCC1 (stereo not given) | -4 | 8% | 6% | 13% | -11%
C/C(=N\NC(=O)c1nnn(-c2nonc2N)c1CSc1ccc(Cl)cc1)c1cccnc1 | -38 | 9% | 6% | -6% | 1%
O=[n+]1cc(-c2ccccc2)n([O-])c2c1CCCCC2 | -34 | 8% | -3% | 2% | nt
O=C(CN1C(=O)C2C3C=CC(C3)C2C1=O)Nc1nncs1 (stereo not given) | -3 | -2% | 11% | 3% | 0%
CC(=O)Nc1ccc(CN2CCCC(CO)(Cc3ccccc3C)C2)cc1 (stereo not given) | 7 | -13% | 1% | 1% | 3%
CN(C(=O)COC(=O)c1cccnc1Nc1cccc(C(F)(F)F)c1)C1CCS(=O)(=O)C1 (stereo not given) | 5 | -5% | -1% | 3% | -5%
Cn1c(=O)c2c(ncn2CCOc2ccc(Br)cc2)n(C)c1=O | ? | 0% | 10µM* | 1% | -3%
O=C(N/N=C/c1ccc2c(c1)OCO2)c1ccc(Br)o1 | 37 | -15% | 7% | -11% | 3%

Results, repeating the preview:
SMILES | HCMV antiviral | AMA1 RON2 block | HCV inhibitor | Giardia FBPA inh | AmpC detergent
CCc1ccc(-n2cccc2/C=C2/C(=N)N3C(=NC2=O)SN=C3S(C)(=O)=O)cc1 | 5 | -6% | -7% | 26% | ?
COc1ccc(OC(=O)CCc2c[nH]c3ccccc23)cc1 | 0 | ? | 7% | -5% | 6%
COc1ccccc1NS(=O)(=O)c1cc(C(=O)N2CCCCCCC2)ccc1C | 4 | 16% | 1% | nt | -14%
COc1ccccc1Nc1ccc(NS(=O)(=O)c2ccc(C(C)=O)cc2)cc1 | 18 | -18% | -23% | 17% | -14%
O=C(c1ccc(F)cc1)C1CCN(C(=O)c2ccccc2F)CC1 | 7 | -5% | -12% | -11% | -17%
C=CCS(=O)(=O)N1CCC(CCOc2ccccc2)(C(=O)OCC)CC1 | -9 | 1% | 4% | 1% | -1%
CCCCOC(=O)C1=C(C)Nc2nnnn2C1c1ccc(OC)c(OC)c1OC (stereo not given) | -8 | -17% | -6% | -16% | 0%
O=C(O)C1C2C=CC(C2)C1C(=O)NCCC1=CCCCC1 (stereo not given) | -4 | 8% | 6% | 13% | -11%
C/C(=N\NC(=O)c1nnn(-c2nonc2N)c1CSc1ccc(Cl)cc1)c1cccnc1 | -38 | 9% | 6% | -6% | 1%
O=[n+]1cc(-c2ccccc2)n([O-])c2c1CCCCC2 | -34 | 8% | -3% | 2% | nt
O=C(CN1C(=O)C2C3C=CC(C3)C2C1=O)Nc1nncs1 (stereo not given) | -3 | -2% | 11% | 3% | 0%
CC(=O)Nc1ccc(CN2CCCC(CO)(Cc3ccccc3C)C2)cc1 (stereo not given) | 7 | -13% | 1% | 1% | 3%
CN(C(=O)COC(=O)c1cccnc1Nc1cccc(C(F)(F)F)c1)C1CCS(=O)(=O)C1 (stereo not given) | 5 | -5% | -1% | 3% | -5%
Cn1c(=O)c2c(ncn2CCOc2ccc(Br)cc2)n(C)c1=O | ? | 0% | 10µM* | 1% | -3%
O=C(N/N=C/c1ccc2c(c1)OCO2)c1ccc(Br)o1 | 37 | -15% | 7% | -11% | 3%
CC12CCC(C(=O)N(CC(O)CN3CCCCC3)C1=O)C2(C)C (stereo not given) | ? | -2% | 16% | -29% | 2%
Cc1ccc(S(=O)(=O)N2CCN(c3ncnc4ccccc34)CC2)cc1 | -87* | 0% | 8.9µM* | nt | 5%
O=C1/C(=C\c2ccc(C(F)(F)F)cc2)CSc2sccc21 | 60 | 5% | 3% | -9% | -6%
O=C(O)c1cccc(-n2cccc2/C=C2/SC(=O)N(CC(=O)N3CCCC3)C2=O)c1 | -29 | -7% | -2% | 12% | -9%
CN=C(Nc1cc(C)nn1-c1ccccc1)c1ccccc1F | 4 | 3% | -6% | 1% | ?
NS(=O)(=O)c1ccc(NC(=O)c2ccccc2C(=O)N2CCCCC2)cc1 | 47 | 6% | 7% | 5% | ?
CCOc1ccc(NC(=O)Nc2ccc3snnc3c2)cc1 | -12 | nt | nt | nt | -8%
Cc1ccccc1NC(=O)c1ccc2c(c1)C(=O)N(CC(C)C)C2=O | 17 | -5% | -5% | 8% | -16%
Cc1cccc(-c2cccc(NC(=O)C3CCCN(Cc4cccnc4)C3)c2)c1 (stereo not given) | 11 | -1% | nt | nt | -1%
CCCCOc1ccc(CC2C(=O)N(C)C(=O)N(C)C2=O)cc1 | 37 | 1% | 15% | -7% | 12%
CCC(=O)NC(=S)Nc1ccc(NC(=O)c2ccco2)c(Cl)c1 | ? | 21% | -21% | -12% | ?
CCOc1ccccc1NC(=S)N(Cc1cc2ccc(C)cc2[nH]c1=O)CC1CCCN1CC (stereo not given) | -28 | -6% | ? | 1% | -3%
CCCC(C)NC(=O)c1cccc(Oc2ccccc2)c1 (stereo not given) | 20 | 9% | -12% | 10% | 13%
Cc1nc(NCC2CCCO2)[nH]c(=O)c1CCC(C)C (stereo not given) | -11 | 2% | ? | -3% | -18%
O=C(NCC1CCN(Cc2cccc(Cl)c2)CC1)Nc1ccccc1Cl | 11 | -3% | ? | 4% | 0%
CC1CCCC(C)N1C(=S)NCc1ccco1 (stereo not given) | 5 | 10% | ? | ? | 2%
CN(NS(=O)(=O)c1ccc(Cl)cc1)c1ncc(C(F)(F)F)cc1Cl | ? | 100%[activator] | 12% | ? | 1%
COc1ccc(NC(=O)CCCNC(=O)Cn2cnc3sc(C)c(C)c3c2=O)cc1Cl | -33 | 0% | 10% | -5% | -7%
O=C(Cn1c2ccccc2c(=O)c2cc([N+](=O)[O-])ccc21)Nc1ccccc1Cl | -6 | -1% | -22% | 5% | -12%
CCOC(=O)/C(=C\c1ccc([N+](=O)[O-])o1)NC(=O)c1ccccc1 | nt | 3% | ? | -2% | ?
Cc1cccc(NS(=O)(=O)c2ccc(C(=O)N3CCCCCC3)cc2)c1C | -33 | -8% | -3% | nt | -13%
O=C(CSCc1ccc([N+](=O)[O-])cc1)NN=C1CCCCCC1 | -13 | 67%[activator] | -7% | -4% | 2%
COCCNC(=O)C(c1ccncc1)N(Cc1ccccc1)C(=O)Cn1nnc2ccccc21 (stereo not given) | 1 | 14% | 8% | 2% | ?
CCOC(=O)c1c(C)n(C)c2ccc(OC)c(NC(=O)CN3CCN(C(=O)c4ccco4)CC3)c12 | 23 | 3% | 7% | -3% | 7%
CCC(C)NC(=O)C1CCN(S(=O)(=O)c2cccnc2)CC1 (stereo not given) | -76* | -3% | 17% | 4% | 3%
CCOC(=O)Nc1ccc(Cc2ccncc2)cc1 | 1 | -11% | ? | 1% | 5%
COc1ccc(/C=N/NC(=O)CO/N=C(\C)c2cccs2)cc1 | -16 | 17% | 21% | -3% | -13%
Nc1nc2ccc(OC(F)(F)F)cc2s1 | 46 | 8% | -14%[8.37 µM] | -2% | -4%&-5%
Clc1ccc(-c2nnc(COc3ncnc4ccccc34)o2)cc1 | 25 | 5% | -6% | 9% | -14%
CCN(CC)CC(=O)Nc1c(C)cccc1C | -31&9&-24 | 5%&-8%&-4% | ? | 12% | ?

Two of the compounds above, as tab-separated lines:
SMILES	HCMV antiviral	AMA1 RON2 block	HCV inhibitor	Giardia FBPA inh	AmpC detergent
CCOC(=O)c1c(C)n(C)c2ccc(OC)c(NC(=O)CN3CCN(C(=O)c4ccco4)CC3)c12	23	3%	7%	-3%	7%
CCC(C)NC(=O)C1CCN(S(=O)(=O)c2cccnc2)CC1 (stereo not given)	-76*	-3%	17%	4%	3%

(further entries)
SMILES | HCMV antiviral | AMA1 RON2 block | HCV inhibitor | Giardia FBPA inh | AmpC detergent
CCC(C)(C)NC(=O)C(c1ccc(C)o1)N(Cc1cccs1)C(=O)Cn1nnc2ccccc21 (stereo not given) | -39 | -3% | 6% | 1% | 2%
O=C(N/N=C/c1ccc(OC(=O)c2ccccc2Br)cc1)c1ccccn1 | 57 | 98%[activator] | 2% | nt | 4%
COC(=O)c1ccc(C23CC4(C2)[C@H](CN(Cc2cccnc2)[C@@H]4c2ccccc2)C3c2ccc(Cl)nc2)cc1 (stereo not given in full) | -1 | -13% | ? | -4%&-4% | -4%
CCc1ccc(OCCCOc2ccc(C=O)cc2)cc1 | 20 | 58%[activator] | 0% | 1% | -2%
CCOC(=O)N1CCN(C(=O)c2ccc3c(=O)n(-c4ccc(F)cc4)c(=S)[nH]c3c2)CC1 | -9 | 1% | -10% | -2% | ?
CCOc1cc(/C=N/n2cnnc2)ccc1OC(=O)c1cccc([N+](=O)[O-])c1 | -8 | -1% | 13% | 7% | 1%
CCN(CCNC(=O)C1CCCN(c2ncnc3c2nc2n3CCCCC2)C1)Cc1ccccc1 (stereo not given) | -21 | 7% | -3% | nt | 1%
CC1CCCC(C)N1CCCNC(=O)c1nn(C)c2c1CSc1ccccc1-2 (stereo not given) | -37 | 4% | ? | nt | -4%
CCN(CC)CCCN1C(=O)C(O)=C(C(=O)c2cc3cccc(OC)c3o2)C1c1ccncc1 (stereo not given) | 2 | 0% | 11% | 10% | -7%
N#Cc1nc(Cc2cccc3ccccc23)oc1N1CCN(c2ccccc2)CC1 | -1 | -22% | -15% | 3% | -8%
CCC1(c2ccc(F)cc2)NC(=O)N(CC(=O)Nc2cc(S(=O)(=O)N(C)C)ccc2Cl)C1=O (stereo not given) | -30 | 0% | ? | 1% | -2%
CC(C)C(=O)NC(Nc1cc(C(F)(F)F)ccc1Cl)C(Cl)(Cl)Cl (stereo not given) | -2 | 7% | 4% | 1% | -13%
O=C(Nc1nc2cc3c(cc2s1)OCCO3)c1ccncc1 | -16 | 0% | ? | -6% | 4%
CC(=O)Nc1ccc(S(=O)(=O)NC2(C(F)(F)F)C(=O)Nc3c2c(=O)[nH]c(=O)n3Cc2ccco2)cc1 (stereo not given) | 17 | 7% | 9% | 3% | -3%
O=C1CC(N2CCN(c3nc4ccccc4s3)CC2)C(=O)N1c1cccc(F)c1 (stereo not given) | -13 | -6% | 8% | 0% | -15%
CN1CCN(NC(=O)/C=C/c2cccc([N+](=O)[O-])c2)CC1 | ? | 2% | 7% | 6% | 0%
O=C(O)c1ccc(S(=O)(=O)N2CCC(NC(=O)C3CCCCC3)CC2)cc1 | -4 | 5% | -12% | -13% | ?
C/C(=N/OCO/N=C(/C)c1ccc(F)cc1)c1ccc(F)cc1 | -19 | -6% | 1% | 1% | -3%
